Screening data (PubChem BioAssay)
Sa RN4220 lethal: S. aureus RN4220 growth inhibition; OD600, 16 h; inhibition, % (no concentration beside the values); 330,000 tested, 0.33% active;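 active = z-score of -3 or lower and OD600 up to 0.18 on both plates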;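 also: plate controls were untreated cells for no effect and reference antibiotic for full effect; stock transfer was 100 nL into about 80 µL; one replicate is shown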
PrP UTR inh: inhibition of PrP 5' UTR reporter expression. cell-based PrP 5' UTR mRNA reporter, plate reader. inhibition, % (concentration not given with the values). 340,000 tested, 0.35% active;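 active = every replicate at 50% or more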;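 also: 0 = median of the neutral control wells; tested in H4 reporter cells; numbers are from one replicate; inactives centre near -14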
Mtb hypoxia inh: reduces hypoxia-regulated biosensor signal in M. tuberculosis. fluorescence inhibition, % (test concentration not listed). M. tuberculosis hypoxia-regulated fluorescent reporter, fluorescence. AID 1159583. 300,000 tested, 0.1% active;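 active = 35 to 45% if threefold the growth effect, above 45% if 1.5-fold the growth effect; inactive = the rest, general growth blockers included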;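 also: wells of about 50 µL received 100 nL stock; 0% = vehicle wells and 100% = reference inhibitor wells; whole bacteria with a GFP reporter of the hypoxia response; strong numbers were not always called active; many hits fall short of the cut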
BJeLR viability: BJeLR cell viability loss. BJeLR (HRASV12) viability, CellTiter-Glo ATP luminescence, 48 h; reference of the scale not given here. 300,000 tested, 0.17% active. inhibition, % (concentration not given with the values);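 active = replicate mean above 50%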;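 also: 50 nL library stock added to about 25 µL; numbers are from one replicate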
Sa ugtP lethal: kills S. aureus RN4220 lacking UgtP. S. aureus RN4220 ugtP deletion, OD600 growth, 16 h; some inactives read as strong as hits. growth inhibition, % (no concentration beside the values). 330,000 tested, 0.54% active. AID 1259309;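 active = z-score under -3 and OD600 up to 0.15 on both plates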;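 also: plate controls were untreated wells for no effect and antibiotic for full effect; wells of about 80 µL received 100 nL stock; the first replicate is given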
Bead autofluor: flagged as autofluorescent in microsphere protease counterscreen; 360,000 tested, 3.1% active; compound autofluorescence counterscreen, microsphere flow cytometry; hits give high values; fluorescence intensity (test concentration not listed);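 active = at least 3 SD above the mean of all compounds, about 16000 in these data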;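 also: 100 nL of 1 mM stock went into each well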
Mtb hypoxia inh growth: further read-out of Mtb hypoxia inh, marked with its call; growth inhibition, %; measured here: M. tuberculosis growth (absorbance);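 0% = vehicle and 100% = reference antibiotic; read after six days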
* marks the source's active call; other numbers are inactive results; nt = no result given.

SMILES	Sa RN4220 lethal	PrP UTR inh	Mtb hypoxia inh	Mtb hypoxia inh growth	BJeLR viability	Sa ugtP lethal	Bead autofluor
COc1ccc(-n2c(O)c(/C=N/NS(=O)(=O)c3ccc(C)c([N+](=O)[O-])c3)c3ccccc3c2=O)cc1OC	nt	-35	nt	nt	-5	nt	4643
Cc1c(Cl)c(=O)oc2cc(OCC(=O)N3CCCC(C)C3)ccc12 (configuration not stated)	-1.9	-12	-9	6	nt	-4	8490
CN(C1CCS(=O)(=O)C1)S(=O)(=O)c1cccc2nsnc12 (configuration not stated)	2.3	-11	nt	nt	-6	-4	2793
Cc1ccc(-c2nc3ccccc3s2)cc1S(=O)(=O)N1CCCC1	-0.8	-30	5	20	-2	-16	11584
CCn1c(SCC(=O)Nc2ccc(NC(C)=O)cc2)nc2c([nH]c3ccccc32)c1=O	1.7	-8	-1	2	-4	-10	5002
NC(=O)C1CCCN(C(=O)CCC(=O)c2cccs2)C1 (configuration not stated)	2.3	-21	5	6	nt	-4	3821
CC(=O)Nc1ccc(C(=O)N(C)c2ccccc2)cc1	-10	-12	6	2	2	-3	3199
CC(C)(C)C(=O)NC1CC2CCCC(C1)N2C(=O)Nc1ccc(Cl)cc1 (configuration not stated)	3.5	-21	12	8	-7	12	3689
Cc1cc(C)nc(SCC(=O)N2CCCCC2)n1	-16	5	10	4	-6	-4	2489
NS(=O)(=O)c1ccc(CNc2ccc3ccccc3n2)cc1	1.1	-49	20	6	-2	9	4113
O=C(c1ccc(Cl)nc1)N1CCN(S(=O)(=O)c2ccccc2)CC1	6.4	-5	3	4	6	2	3966
COc1ccc(CCNCc2cc(C)n(-c3ccc(OC)cc3)c2C)cc1	nt	-2	nt	nt	-3	nt	4520
Cc1cc(NC(=O)CSc2nc(Cc3ccccc3)c(C)[nH]2)no1	4.5	-13	15	4	-8	4	5917
CCN1CCN(C(c2cccs2)C(C)NC(=O)c2ccco2)CC1 (configuration not stated)	1.9	-47	1	3	-5	5	23437*
CCn1cc(/C=N\NC(=O)c2ccc(Cl)cc2)cn1	nt	-6	nt	nt	-12	nt	2417
COc1ccc(C2c3c(ncn(CCN4CCOCC4)c3=N)Oc3ccc4ccccc4c32)cc1OC (configuration not stated)	-0.3	7	-6	17	6	-9	10661
C/C(=N\OCC(=O)Nc1nc2ccccc2s1)c1ccccc1	nt	-25	nt	nt	9	nt	7851
O=C(CNC(=O)c1ccco1)NCC(=O)OCc1cccc(C(=O)Oc2ccccc2)c1	3.9	-1	-5	1	5	5	11097
CNc1nc(C23CC4CC(CC(C4)C2)C3)cs1	8.6	-1	-4	-3	4	1	4322
CCc1ccc(NC(=O)Cn2nnc(C(=O)NCc3cccs3)c2N)cc1	-1.9	-15	-10	-6	0	3	2642
Cc1cccn2c(=O)c(C=C(C#N)C#N)c(N3CCN(c4cccc(Cl)c4)CC3)nc12	4.3	-3	1	11	3	2	3264
COc1ccccc1CNC(=O)COC(=O)c1sc(C)nc1C	-1.8	-16	-4	4	nt	-7	7163
O=C(C(=C([O-])c1ccccc1)[n+]1ccccc1)c1ccc([N+](=O)[O-])cc1	-2.0	nt	4	-5	nt	-8	nt
Cc1ccc(S(=O)(=O)N2CCOCC2)cc1NC(=O)Nc1ccc([N+](=O)[O-])cc1	0.4	-25	10	5	nt	0	3902
CCS(=O)(=O)N1CCCC(C(=O)NCc2cccc(OC)c2)C1 (configuration not stated)	0.2	3	1	-1	-1	-10	3033
COC(C/C=C\[C@@H](O)COCc1ccccc1)OC	nt	-23	nt	nt	5	nt	3511
Cc1ccc2nc(NC(=O)Cn3nc(C)c([N+](=O)[O-])c3C)sc2c1	4.7	4	11	7	-3	1	2003
Cc1ccc(NC(=O)Nc2ccccc2)cc1[N+](=O)[O-]	6.0	-44	7	6	2	-29	9265
Cc1ccc(CNc2oc(-c3ccco3)nc2C#N)cc1	-1.8	-44	3	-1	-7	-13	11550
CC[C@@H]1C(c2cccc(Cl)c2)=NN(c2ccc(Br)cc2)[C@H]1C(=O)N1CCOC1=O	-7.4	-25	6	-11	nt	73	2868

Whole records, looked up by structure. Order of screens: Sa RN4220 lethal, PrP UTR inh, Mtb hypoxia inh, Mtb hypoxia inh growth, BJeLR viability, Sa ugtP lethal, Bead autofluor
COC(C/C=C\[C@@H](O)COCc1ccccc1)OC reads nt, -23, nt, nt, 5, nt, 3511
Cc1cccn2c(=O)c(C=C(C#N)C#N)c(N3CCN(c4cccc(Cl)c4)CC3)nc12 reads 4.3, -3, 1, 11, 3, 2, 3264
CCS(=O)(=O)N1CCCC(C(=O)NCc2cccc(OC)c2)C1 (configuration not stated) reads 0.2, 3, 1, -1, -1, -10, 3033

Further entries:
SMILES	Sa RN4220 lethal	PrP UTR inh	Mtb hypoxia inh	Mtb hypoxia inh growth	BJeLR viability	Sa ugtP lethal	Bead autofluor
O=C(Nc1ccc(Cl)c(Cl)c1)c1ccc2c(c1)OCO2	1.9	-103	15	14	14	-7	3735
CC1CCC(=C(C#N)c2nc(-c3cc4ccccc4oc3=O)cs2)CC1 (configuration not stated)	13	-90	0	4	-5	3	4302
C=CCC(CC(=O)N(CCO)Cc1ccccc1)C(=O)NC(COC(=O)C(CC=C)Cc1ccc(F)cc1)c1ccccc1 (configuration not stated)	-7.5	nt	-2	5	nt	-30	nt
O=C(Nc1ccccc1Br)c1ccc(N2CCCC2=O)cc1	-2.1	-131	7	4	-2	-2	6305
NS(=O)(=O)c1ccc(CCN2C(=O)CCC2=O)cc1	2.2	-18	6	8	-2	4	3955
O=C(/C=C/c1cc(Br)ccc1F)OCC(=O)N1CCCC1	-0.9	-17	7	7	nt	-1	3856
O=C(N/N=C/c1ccc(Cl)cc1)c1cc2c(s1)-c1ccccc1CC2	nt	-7	nt	nt	7	nt	2773
COc1ccc(NC(=O)N2CCCC2C(=O)NCC2CCCCC2)cc1 (configuration not stated)	-0.6	-18	6	-3	-2	4	3617
COc1ccc(NC(=S)Nc2ccc3nc(C)c(C)nc3c2)cc1	1.5	-12	7	9	-3	2	6162
NS(=O)(=O)c1ccc(CNC(=O)c2cc(-c3cccnc3)nc3ccc(Br)cc23)cc1	5.3	-9	5	-1	-3	16	4878
CCn1cc(C(=O)O)c(=O)c2cc(F)c(N3CCN(C(=S)Nc4ccc(OC)cc4)CC3)cc21	80	-29	13	4	-3	79	4712
CCOc1cc(C2NC(=O)NC(c3ccccc3)=C2C(C)=O)ccc1OC(C)=O (configuration not stated)	5.4	-10	7	1	9	6	2446
Cc1c(Cl)cccc1NC(=S)NCc1ccccc1	-3.3	-8	nt	nt	1	0	4648
CCOc1ccc2nc3c(cc2c1)CN(CCCO)C(=NCCOC)S3	1.9	-10	3	11	-10	3	3943
Cc1cc2nccc(-c3cccnc3)n2n1	1.7	-11	8	1	-1	10	3126
C/C=C/C=C/C(=O)OCC(=O)Nc1ccc(Cl)cc1	2.6	-20	2	-4	-5	0	3132
Cc1ccc(OCCCC(=O)Nc2ccc(Cl)c(S(=O)(=O)N3CCOCC3)c2)cc1	2.8	4	2	5	nt	-2	3811
CC(C(=O)NCc1ccccn1)c1ccc([N+](=O)[O-])cc1 (configuration not stated)	1.2	-6	15	7	4	9	1963
Cc1nnc(SCC(=O)Nc2sc3c(c2C(N)=O)CCCC3)[nH]c1=O	0.2	-35	9	-4	10	-2	9557
CCC(=O)O[C@]1(C(=O)CCl)[C@@H](C)C[C@H]2[C@@H]3CCC4=CC(=O)C=C[C@]4(C)[C@@]3(F)[C@@H](O)C[C@@]21C	nt	-7	nt	nt	-2	nt	4282

In another format: 17 of the compounds above
structure | Sa RN4220 lethal | PrP UTR inh | Mtb hypoxia inh | Mtb hypoxia inh growth | BJeLR viability | Sa ugtP lethal | Bead autofluor
C=CCC(CC(=O)N(CCO)Cc1ccccc1)C(=O)NC(COC(=O)C(CC=C)Cc1ccc(F)cc1)c1ccccc1 (configuration not stated) | -7.5 | nt | -2 | 5 | nt | -30 | nt
O=C(Nc1ccccc1Br)c1ccc(N2CCCC2=O)cc1 | -2.1 | -131 | 7 | 4 | -2 | -2 | 6305
NS(=O)(=O)c1ccc(CCN2C(=O)CCC2=O)cc1 | 2.2 | -18 | 6 | 8 | -2 | 4 | 3955
O=C(/C=C/c1cc(Br)ccc1F)OCC(=O)N1CCCC1 | -0.9 | -17 | 7 | 7 | nt | -1 | 3856
O=C(N/N=C/c1ccc(Cl)cc1)c1cc2c(s1)-c1ccccc1CC2 | nt | -7 | nt | nt | 7 | nt | 2773
COc1ccc(NC(=O)N2CCCC2C(=O)NCC2CCCCC2)cc1 (configuration not stated) | -0.6 | -18 | 6 | -3 | -2 | 4 | 3617
COc1ccc(NC(=S)Nc2ccc3nc(C)c(C)nc3c2)cc1 | 1.5 | -12 | 7 | 9 | -3 | 2 | 6162
NS(=O)(=O)c1ccc(CNC(=O)c2cc(-c3cccnc3)nc3ccc(Br)cc23)cc1 | 5.3 | -9 | 5 | -1 | -3 | 16 | 4878
CCn1cc(C(=O)O)c(=O)c2cc(F)c(N3CCN(C(=S)Nc4ccc(OC)cc4)CC3)cc21 | 80 | -29 | 13 | 4 | -3 | 79 | 4712
CCOc1cc(C2NC(=O)NC(c3ccccc3)=C2C(C)=O)ccc1OC(C)=O (configuration not stated) | 5.4 | -10 | 7 | 1 | 9 | 6 | 2446
Cc1c(Cl)cccc1NC(=S)NCc1ccccc1 | -3.3 | -8 | nt | nt | 1 | 0 | 4648
CCOc1ccc2nc3c(cc2c1)CN(CCCO)C(=NCCOC)S3 | 1.9 | -10 | 3 | 11 | -10 | 3 | 3943
Cc1cc2nccc(-c3cccnc3)n2n1 | 1.7 | -11 | 8 | 1 | -1 | 10 | 3126
C/C=C/C=C/C(=O)OCC(=O)Nc1ccc(Cl)cc1 | 2.6 | -20 | 2 | -4 | -5 | 0 | 3132
Cc1ccc(OCCCC(=O)Nc2ccc(Cl)c(S(=O)(=O)N3CCOCC3)c2)cc1 | 2.8 | 4 | 2 | 5 | nt | -2 | 3811
CC(C(=O)NCc1ccccn1)c1ccc([N+](=O)[O-])cc1 (configuration not stated) | 1.2 | -6 | 15 | 7 | 4 | 9 | 1963
Cc1nnc(SCC(=O)Nc2sc3c(c2C(N)=O)CCCC3)[nH]c1=O | 0.2 | -35 | 9 | -4 | 10 | -2 | 9557

New compounds follow
SMILES	Sa RN4220 lethal	PrP UTR inh	Mtb hypoxia inh	Mtb hypoxia inh growth	BJeLR viability	Sa ugtP lethal	Bead autofluor
O=C(Nc1ccc(S(=O)(=O)NC2=NCCCCC2)cc1)c1ccc(Cl)cc1Cl	-2.1	-24	1	0	-1	6	4674
O=C(Nc1ccccc1C(=O)NCCCN1CCOCC1)c1ccc(Cl)cc1	-1.1	-4	0	2	-8	5	4689
CCCn1c(SCC(=O)c2ccc3c(c2)OCCO3)nnc1-c1ccco1	10	-24	nt	nt	-9	0	4045
CC1CCCN(C(=O)C2CCN(CC(C)c3ccccc3)CC2)C1 (configuration not stated)	6.0	3	5	5	5	0	2786
COc1ccc(OC)c(/C=C2\Oc3cc(OCC(=O)N4CC(O)C[C@H]4C(=O)O)ccc3C2=O)c1 (some centres not stated)	-2.5	-12	nt	nt	-5	0	4348
COC(=O)[C@H]1[C@H](c2ccccc2)[C@H](C(=O)OC)O[C@H]1c1ccccc1	3.4	-16	5	8	-2	-1	4162
CCOc1ccc(N(CC(=O)N2CCC(Cc3ccccc3)CC2)S(C)(=O)=O)cc1	-0.7	-2	-7	-3	5	-3	3946
O=C(CCC(=O)c1cccs1)NCc1ccccc1	0.0	-25	nt	nt	-2	2	4509
